Screening results deposited in PubChem BioAssay by National Center for Advancing Translational Sciences (NCATS).
Vaccinia Venus – qHTS for Stage-Specific Inhibitors of Vaccinia Orthopoxvirus: Venus Reporter Primary qHTS | Vaccinia virus Venus reporter expression, fluorescence | 330,000 tested, 0.46% active | Potency, µM (titrated, usually from 36.5 µM), inactives show at the top dose activity change, negative = inhibition, usual class: inhibitors; active means well fitted inhibition curve with a large enough effect; inconclusive means small, poorly fitted or top-dose-only effect; inactive means no such curve, though single readings can be large or run the other way; tested in A549 cells; note: nearly all actives have a fitted effect of over 30% in size; inactives centre near -10
Vaccinia mCherry – qHTS for Stage-Specific Inhibitors of Vaccinia Orthopoxvirus: mCherry Reporter Primary qHTS; Vaccinia virus mCherry reporter infection, fluorescence; about a quarter of the inactives have no number; Potency, µM (titrated, usually from 36.5 µM), inactives show at the highest dose activity change, negative = inhibition, hits mostly inhibitors; 310,000 tested, 0.63% active; AID 720579, 2013; active = well fitted inhibition curve with a large enough effect; inconclusive = small, poorly fitted or top-dose-only effect; inactive = no such curve, though single readings can be large or run the other way; tested in A549 cells; note: nearly all actives have a fitted effect of over 35% in size; inactives centre near -10
An asterisk follows results filed as active; i = inactive; u = inconclusive; x = not tested or not shown; & = joins results of further samples; [ ] = remark or other dose. % is set by controls: 0 for no effect and ±100 for the full control effect; potency is the fitted concentration of half-maximal effect.

SMILES	Vaccinia Venus	Vaccinia mCherry
Nc1nc(/C=C/c2ccc(F)cc2)nc(-c2ccccc2O)n1	-18%	-12%
COc1ccc(OC)c(C(=O)NC(CC(N)=O)c2ccc(NCCOc3ccccc3)c([N+](=O)[O-])c2)c1 (stereo not drawn)	-13%	-8%
CS(=O)(=O)c1nc(S(=O)(=O)c2ccc(Cl)cc2)c(N2CCCCC2)s1	-20%[7.34 µM]	i[7.34 µM]
Cc1ccc(S(=O)(=O)N2CCC(C(=O)NCC3CCCCC3)CC2)cc1	-16%	-4%
CNc1sc(C(=O)c2cccs2)c(N)c1-c1nc2ccccc2s1	-24%	-23%[1.46 µM]
O=C(CNC(=O)c1n[nH]c2ccccc12)Nc1ccc(F)c(F)c1F	-4%	i
O=C(COC(=O)/C=C/c1ccco1)NCc1ccccc1Cl	0%	i
Cc1ccc(S(=O)(=O)N2CCOCC2)cc1C(=O)Nc1cc(S(=O)(=O)N2CCCCC2)ccc1O	-16%	i
CC(=O)NC(C)(c1ccccc1)c1nc(-c2cccc(F)c2)cs1 (stereo not drawn)	-21%	i
O=C(COc1cccnc1[N+](=O)[O-])Nc1cccc(S(=O)(=O)N2CCOCC2)c1	-8%	-7%
CCOC(=O)C1CCCN(c2c(C(=O)c3ccccc3)cnc3ccccc23)C1 (stereo not drawn)	0%	i
Cc1noc(C)c1-c1ccc(C(=O)NCc2cccc(Cl)c2)c2occc12	-14%	-8%
Cc1ccc(C2NC(=O)Cc3ccccc32)cc1 (stereo not drawn)	-5%	-10%
CC1CCC2(CC1)NC(=O)N(CC(=O)N1CC(C)CC(C)C1)C2=O (stereo not drawn)	-1%	-10%
CCc1ccccc1OCC(=O)Nc1ccc(F)c(S(=O)(=O)N2CCOCC2)c1	-23%	-14%
COc1ccc(OC)c(C(Cc2ccnc3ccccc23)Cc2ccnc3ccccc23)c1	-19%	14%
CSc1ccccc1NC(=O)CSCc1ccccc1Br	-7%	u
CCn1cc(C(=O)NCc2ccccn2)c(=O)c2cc(F)c(N3CCN(C)CC3)cc21	-8%	-4%
CCOC(=O)C1=C(C)N(Cc2ccc(C(=O)O)cc2)C(=O)NC1c1ccc([N+](=O)[O-])cc1 (stereo not drawn)	-4%	i
Cc1nc([N+](=O)[O-])cn1C(C)C	-16%[7.34 µM]	i[7.34 µM]

Compound profiles, as listed above. Order of screens: Vaccinia Venus	Vaccinia mCherry
CSc1ccccc1NC(=O)CSCc1ccccc1Br reads -7%	u
CCc1ccccc1OCC(=O)Nc1ccc(F)c(S(=O)(=O)N2CCOCC2)c1 reads -23%	-14%

The list goes on:
SMILES	Vaccinia Venus	Vaccinia mCherry
COc1cccc(N2CCN(C(=O)c3ccc(C)c(NC(=O)c4nsc5ccccc45)c3)CC2)c1	-15%	-12%
COc1cc(OC)cc(-c2c(-c3cccs3)c3cc(-c4ccc5[nH]ccc5c4)ccc3n2C)c1	-13%	u
O=C1/C(=C\Nc2ccc(Cl)cc2)CCN1c1ncccn1	-13%	x
CC(=O)C1=NN(c2ccccc2)C2(S1)S/C(=C\c1ccccc1)C(=O)N2c1ccccc1 (stereo not drawn)	-27%	x
CC(C)(C)c1cc(C(=O)NCCN2CCCC2)cc(C(C)(C)C)c1	-13%	-28%
Cc1ccc(NC(=O)CCn2nc(C)cc2C)cc1	-8%	-12%
Cc1ccc(SCC(=O)c2sc(-c3ccccc3)nc2C)cc1	-11%	x
COc1ccc(Cl)cc1NC(=O)CCn1c(=O)oc2ccccc21	-14%&-3%	-2%&3%
Cc1ccc(-c2nc(CS(=O)(=O)CC(=O)N3CCN(c4cccc(C)c4C)CC3)c(C)o2)cc1	-20%	-16%
COc1ccc(S(=O)(=O)N2CCC(c3nnnn3-c3ccccc3)CC2)cc1OC	-20%	-19%
Fc1ccc(-c2ccc3c(c2)C2CC3CCN2)cc1 (stereo not drawn)	-6%	u
COc1ccccc1CC(NC(C)=O)C(=O)NC1CCN(C(=O)c2ccc(C)cc2)CC1 (stereo not drawn)	-1%	9%
O=C(C[C@@H]1C/C=C\CCCC(=O)OC[C@@H](c2ccccc2)NC1=O)NCCO	1%	-15%
C[C@H](CO)N1C[C@H](C)[C@@H](CN(C)S(C)(=O)=O)Oc2ccc(NC(=O)c3ccncc3)cc2C1=O	6%	-12%
Cn1c(=O)c2nc(SCC(=O)Nc3cc(Cl)cc(Cl)c3)n(C)c2n(C)c1=O	-16%	-15%
O=[N+]([O-])c1ccc(Oc2cccnc2)nc1	-17%	i
COc1ccc(N2CCN(C(=O)CSc3nnc(-c4ccco4)n3C)CC2)cc1	-14%	-4%
O=C(NNc1ccc(Cl)cc1)c1c(F)cccc1Cl	-8%	-16%
COc1ccc([C@@H]2C[C@H](c3ccccc3)Oc3cc(C)cc(C)c32)cc1	2%	-4%
CCCCn1c(NC(=O)c2ccccc2)nc2ccccc21	-23%	i
COc1ccnc(Oc2ccc(F)cc2)c1C(=O)N/C=N/OCc1c(Cl)cccc1Cl	-20%	-9%
COc1cccc(Oc2ccc(S(=O)(=O)N3CCCC3)cc2[N+](=O)[O-])c1	-7%	u
Cc1cc(C)c(C)c(S(=O)(=O)NC(C(=O)O)C(C)C)c1C (stereo not drawn)	-16%	-18%
O=C1CSC(=S)N1Cc1cccnc1	213%[activator]	x
O=C(COc1cc2oc(=O)c3c(c2cc1Cl)CCC3)Nc1ccccn1	15%[7.34 µM]	5%[7.34 µM]
Cc1ccccc1Nc1c(-c2ccc(Cl)s2)nc2c(C)cccn12	-11%	-15%
O=C(CN1C(=O)CCC1=O)Nc1ccc2c3c(cccc13)CC2	1%	x
Cc1ccc(OC(=O)CCC(=O)Nc2ccc(S(=O)(=O)Nc3cc(C)on3)cc2)cc1	1%	-7%
Cc1ccc(-c2nn(-c3ccccc3)cc2NC(=O)CCl)cc1	-8%	-15%
O=C(Nc1ccncc1)Nc1ccc(F)c(Cl)c1	u	u
COc1ccc([N+](=O)[O-])cc1NC(=O)c1ccccc1N(C)S(C)(=O)=O	-3%	-9%
COC(=O)CCCC[C@@H]1O[C@H](CCc2ccccc2)Cc2[nH]c(=S)[nH]c(=O)c21	2%	6%
CC(=O)NCCc1ccc(O)cc1	8%	i
CCc1nc(SCC(=O)NNC(=O)c2ccc(OC)cc2)c2ccccc2n1	-2%	-2%
O=C(CSc1nnc2ccc(-c3ccccn3)nn12)Nc1ccccc1F	-9%	-3%
C/C(=N\NC(=O)c1c(Cl)cnn1C)c1cccc(NC(=O)COc2ccccc2)c1	-28%	-27%
O=C(Nc1ccccc1Cl)c1ccc2nsnc2c1	-10%	i
C1=CC2c3ccccc3NC(c3ccncc3)C2C1 (stereo not drawn)	-6%	0%
CCOC(=O)c1ccc2c(c1)N(Cc1cc(C)ccc1C)C(=O)c1ccccc1S2(=O)=O	-15%	-23%
COc1cccc(CNC(=O)c2ccccc2SCC(=O)N2CCCC2)c1	-6%	-15%
CCC(=O)N1CCN(c2cc(N3CCN(C)CC3)c(F)cc2[N+](=O)[O-])CC1	u	u
Nn1cc(-c2ccccc2)nc1SCC(=O)NCC1CCCO1 (stereo not drawn)	-9%	i
CCCCSc1n[nH]c(=S)c2nc[nH]c12	-9%	i
COc1cccc(CN(CC(=O)NCc2ccccc2)S(=O)(=O)CCl)c1	-17%&-12%	-9%
Cc1ccc(C2/C(=C(\O)c3ccc4c(c3)OCCO4)C(=O)C(=O)N2Cc2cccnc2)cc1 (stereo not drawn)	-5%	-10%
CCCCCCCCN1C(=O)[C@H](CC(=O)NCCCN2CCCC2=O)C[C@@]2(C(=O)OCC)CCCC=C12	-9%	10%
COC(=O)C1=C(c2cccc(OC)c2OC)C[C@@H]2CC[C@H]1N2C(=O)NCc1ccc(F)cc1	-10%	-18%
CCc1ccc(NC(=O)Cn2c(=O)c3cccn3c3ccccc32)cc1	u	u
CC[C@H](C)[C@H](NC(=O)[C@H](Cc1ccc(O)cc1)NC(=O)[C@@H](N)C(C)C)C(=O)N[C@@H](Cc1cnc[nH]1)C(=O)N1CCC[C@H]1C(=O)N[C@@H](Cc1ccccc1)C(=O)O	-9%	-7%
CCC(C)n1c(SCC(=O)NCc2ccco2)nnc1-c1cccc(S(=O)(=O)N2CCOCC2)c1 (stereo not drawn)	2%	x
O=C(COc1ccc(S(=O)(=O)N2CCCCC2)cc1)Nc1ccccc1F	1%	i
CCc1ccccc1Nc1cc(C(=O)NC2CCC(C)CC2)c2ccccc2n1 (stereo not drawn)	-19%	-20%
Cc1ccc(-c2noc(CNC(=O)c3ccc4c(c3)OCO4)n2)cc1	-21%	-14%
CCOc1cccc(SCc2noc(C(=O)NCCOC)c2C(=O)O)c1	-5%	i
COC(=O)c1ccc(C2c3c(-c4ccccc4O)n[nH]c3C(=O)N2Cc2ccncc2)cc1 (stereo not drawn)	-7%	-7%
CN(C)c1ccc(S(=O)(=O)N2CCCCC2)cc1NC(=O)CCNC(=O)c1ccc(Cl)cc1	-17%	-24%
CCS(=O)(=O)c1ccc2oc(SCC(=O)Nc3ccc(OC)c(OC)c3)nc2c1	-1%	-10%
COc1ccc(N(C(=O)CCC(=O)Nc2cc(C)on2)C(C(=O)NC2CCCC2)c2ccco2)cc1 (stereo not drawn)	6%	12%
O=C(NCc1ccco1)C1CC(c2cc(C(F)(F)F)cc(C(F)(F)F)c2)=NO1 (stereo not drawn)	-26%	i
COc1cc(NC(=O)C2CCCN(S(=O)(=O)c3ccc4c(c3)CCCC(=O)N4)C2)cc(OC)c1 (stereo not drawn)	u	u

6 of the compounds above, with values under each structure:
Results follow in this order: Vaccinia Venus | Vaccinia mCherry
O=C(COc1ccc(S(=O)(=O)N2CCCCC2)cc1)Nc1ccccc1F
    1% | i
CCc1ccccc1Nc1cc(C(=O)NC2CCC(C)CC2)c2ccccc2n1 (stereo not drawn)
    -19% | -20%
Cc1ccc(-c2noc(CNC(=O)c3ccc4c(c3)OCO4)n2)cc1
    -21% | -14%
CCOc1cccc(SCc2noc(C(=O)NCCOC)c2C(=O)O)c1
    -5% | i
COC(=O)c1ccc(C2c3c(-c4ccccc4O)n[nH]c3C(=O)N2Cc2ccncc2)cc1 (stereo not drawn)
    -7% | -7%
CN(C)c1ccc(S(=O)(=O)N2CCCCC2)cc1NC(=O)CCNC(=O)c1ccc(Cl)cc1
    -17% | -24%

(more compounds)
SMILES	Vaccinia Venus	Vaccinia mCherry
CCOC(=O)C1(Cc2cccc(OC)c2)CCCN(Cc2cnn(C)c2)C1 (stereo not drawn)	-4%	-21%
Cc1cc2occ(CC(=O)N(C)CC(=O)Nc3ccccc3Br)c2cc1C	-22%	-18%
COc1ccc(N2C(=O)CC(Sc3ncccc3C(=O)O)C2=O)cc1 (stereo not drawn)	0%	-13%
CCOC(=O)c1c[nH]c(=O)c(Br)c1O	-7%	-11%
Cc1cnn(-c2cc(N/N=C/c3cccc(F)c3)ncn2)c1	-9%	-6%
CN(C)CCNC(=O)C(=O)NCC(c1cccnc1)N1CCN(c2ccc(F)cc2)CC1 (stereo not drawn)	-4%	-7%
COc1ccc(/C(O)=C2/C(=O)C(=O)N(CC3CCCO3)C2c2ccc(OC)c(OC)c2)cc1 (stereo not drawn)	-5%	-10%
CC(C)c1ccc(CNc2nc(-c3ccco3)nn2S(=O)(=O)c2ccccc2)cc1	-11%	-10%
O=C(CCC(=O)N(CC(=O)NC1CCCC1)Cc1cccs1)Nc1nccs1	-1%	i
C=CCNC(=O)CCCC(=O)NCC=C	-14%	-8%
Cc1ccc(NC(=O)C(Cc2ccccc2)NS(=O)(=O)c2ccc3c(c2)CCC(=O)N3)cc1 (stereo not drawn)	-10%	-11%
CS(=O)(=O)N1CCN(CCN2C(=O)c3cccc4cccc(c34)C2=O)CC1	2%	-2%
CS/C(N)=N/S(=O)(=O)c1ccc(NC(C)=O)cc1	-5%	i
CCC1(C)NC(c2ccc3c(c2)OCO3)=CC(c2ccccc2O)N1 (stereo not drawn)	-7%	42%[activator]
NC(=O)c1nsc(C(=O)N(CC(=O)NC2CCCC2)Cc2ccc3c(c2)OCO3)c1N	-20%	0%
O=C(COC(=O)c1ccccc1-n1cnnn1)c1ccc(F)c(F)c1	-6%	0%
COC(=O)c1sccc1S(=O)(=O)N1CCN(c2ccc(C(C)=O)cc2)CC1	-3%	-13%
CCC(C)(C)NC(=O)C(c1cccc(OC)c1OC)N(C(=O)CCC(=O)Nc1cc(C)on1)c1ccc2c(c1)OCCO2 (stereo not drawn)	-4%	-12%
CCCOc1ccc(/C=N/NC(=O)CSc2ccccn2)cc1OC	-16%	i
NS(=O)(=O)c1ccc(CNC(=O)c2ccc(NS(=O)(=O)c3cccs3)cc2)cc1	-11%	-15%
COc1cc(NC(=O)c2ccccc2Cl)c(OC)cc1NC(=O)CN1CCCCC1	-4%	-14%
CCC(CC)NC(=O)c1ccccc1Oc1ccccc1	22%	x
COc1ccc(CCNC(=O)CCS(=O)(=O)c2ccc3c(c2)NC(=O)CO3)cc1OC	-9%	-17%
CCCC(=O)Nc1nc2ccc3nc(C)sc3c2s1	-16%	u
Cc1cc(Cl)ccc1Oc1nccc(N(C)C)c1C#N	-27%	u
COc1ccc(OC)c(NC(=O)CNC(=O)Cn2cnc3ccccc3c2=O)c1	7%	x

2 entries from above in another layout.
Screens in order – Vaccinia Venus	Vaccinia mCherry
> COc1cccc(CN(CC(=O)NCc2ccccc2)S(=O)(=O)CCl)c1
→ -17%&-12%	-9%
> Cc1ccc(C2/C(=C(\O)c3ccc4c(c3)OCCO4)C(=O)C(=O)N2Cc2cccnc2)cc1 (stereo not drawn)
→ -5%	-10%
